quorum sensing: Vibrio cholerae quorum sensing activators, luminescence (AID 686977). V. cholerae quorum sensing reporter, luminescence, 6 h; higher luminescence means a stronger effect; most inactives read 0. luminescence at 50 µM unless noted, or EC50 in µM where a hit was titrated. 9,400 tested, under 10 active;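 active means light above mean plus 3 SD and confirmed in a dose series; inconclusive means above that limit without a clear retest; inactive means below it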;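 further: raw light counts without normalisation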
* marks the source's active call; other numbers are inactive results; u = inconclusive; [ ] = another dose, or the depositor's remark. This is a subset; rates above refer to the full screens.

| Structure | quorum sensing |
| --- | --- |
| COc1ccccc1NC(=S)N(CCc1c(C)[nH]c2ccccc12)Cc1cccs1 | 0 |
| Cc1csc2ncc(C(=O)N(Cc3ccccc3)c3ccccn3)c(=O)n12 | 40 |
| Cn1nnnc1SCCNCc1ccccc1F | 40 |
| CCOC(=O)N1CCC(N2CC34C=CC(O3)C(C(=O)Nc3ccc(C)cc3)C4C2=O)CC1 (configuration not stated) | 40 |
| CCCCN(Cc1ccco1)C(=O)Cn1ncc2c(=O)oc3ccc(C)cc3c21 | 0 |
| Cc1cc(OCC(=O)Nc2ccc3c(c2)OCCO3)ccc1Cl | 0 |
| C=CCSC(=C(C#N)C#N)c1cc2c([nH]1)CCCC2 | 0 |
| CCOc1ccccc1NC(=O)C1CCN(S(=O)(=O)c2c(C)nn(C)c2C)CC1 | 0 |
| CC(=O)N[C@@H]1[C@@H](O[C@H](C)C(=O)O)[C@H](O)[C@@H](CO)O[C@@H]1O | 0[10 µg/mL] |
| O=C(CS(=O)(=O)c1cn(Cc2ccc(Cl)cc2)c2ccccc12)N1CCCCC1 | 40 |
| COc1ccc(N2C(=O)C3CCCN3C2c2cccc(OC)c2OC)cc1 (configuration not stated) | 0 |
| CCCNC(=O)c1c(N)n(Cc2ccco2)c2nc3ccccc3nc12 | 0 |
| CC(C)(Oc1ccc(C2CC2(Cl)Cl)cc1)C(=O)O (configuration not stated) | 0[10 µg/mL] |
| CCOC(=O)N1CCC(Nc2c(NCCCN(CC)CC)c(=O)c2=O)CC1 | 40 |
| CCN(C(=O)Cn1c(=O)n2nc(CCn3nc(C)cc3C)nc2c2ccccc21)c1cccc(C)c1 | 0 |
| CCc1cc2c3c(c(=O)oc2cc1O)CCCC3 | 0 |
| Cc1cc(C(=O)CSc2nnc(-c3ccc(OC(F)F)cc3)o2)c(C)n1Cc1cccs1 | 40 |
| O=C1CCCC(O)=C1C1NCCc2ccccc21 (configuration not stated) | 0 |
| COC(=O)[C@H]1[C@H]2C[C@@H]3c4[nH]c5cc(OC)ccc5c4CCN3C[C@H]2C[C@@H](OC(=O)c2cc(OC)c(OC)c(OC)c2)[C@@H]1OC | 0[10 µg/mL] |
| c1ccc2[nH]c(-c3cscn3)nc2c1 | 0[10 µg/mL] |
| CCOC(=O)N1CCN(S(=O)(=O)c2ccc(C(=O)Nc3sc4c(c3C#N)CCC4)cc2)CC1 | 0 |
| O=C(Nc1ccc2c(c1)OCCO2)c1ccc(CN2CCOCC2)cc1 | 0 |
| Cc1ccc(C)c(OCC(=O)Nn2c(C)nc3ccccc3c2=O)c1 | 0 |
| Cc1cc(NC(=O)CSc2nnc(-c3ccoc3C)o2)no1 | 0 |
| CCN1C(=O)c2ccccc2S(=O)c2ccc(C(=O)NC3CC3)cc21 (configuration not stated) | 0 |
| COc1cccc(C(=O)Nc2nc3c(c(=O)[nH]2)CCCC3)c1 | u |
| CCCCNC(=O)Nc1ccccn1 | u |
| Cn1c(C(=O)NC2CC2)cc2c(=O)n(C)c3ccccc3c21 | 40 |
| COc1ccc(OC)c(-c2nnc(NC(=O)C(C)Sc3nncn3C)s2)c1 (configuration not stated) | 0 |
| COc1ccc2c(c1OC)CN1CCc3cc4c(cc3C1C2)OCO4 (configuration not stated) | 40[10 µg/mL] |

Arranged by SMILES length (lowest first): part of the list above.
| Structure | quorum sensing |
| --- | --- |
| Cc1ccc(C)c(OCC(=O)Nn2c(C)nc3ccccc3c2=O)c1 | 0 |
| CCOC(=O)N1CCC(Nc2c(NCCCN(CC)CC)c(=O)c2=O)CC1 | 40 |
| CCOc1ccccc1NC(=O)C1CCN(S(=O)(=O)c2c(C)nn(C)c2C)CC1 | 0 |

Next part:
| Structure | quorum sensing |
| --- | --- |
| C=CCSc1nc(N)c(C(=O)Nc2ccccc2)cc1C#N | 0 |
| c1ccc(Cc2nnc(N3CCOCC3)c3ccccc23)cc1 | 0 |
| CCn1nnnc1SCC(=O)Nc1cccc(NC(C)=O)c1 | 0 |
| COc1cccc(C2C(C(N)=O)=C(C)Nc3nc(-c4ccccc4Cl)nn32)c1 (configuration not stated) | 0 |
| CCC(=O)OC1c2ccccc2C(=O)N1Cc1ccccc1 (configuration not stated) | 40 |
| COc1ccc(C(=O)Oc2ccc3oc(=O)sc3c2)cc1 | 40 |
| CCCN1CCN(C(=O)CCCNC(=O)Cn2cnc3sc(C)c(C)c3c2=O)CC1 | 40 |
| O=C(O)c1cccc2c1C(=O)N(C1CCCCC1)C2 | 40 |
| COc1ccccc1-c1nnc(SCC(=O)Nc2ccc(Cl)cc2Cl)o1 | 0 |
| CN(C)c1ccc(C(c2nnnn2C(C)(C)C)N2CCN(C(=O)c3ccco3)CC2)cc1 (configuration not stated) | 40 |
| Cc1nc2c(-c3ccc(F)cc3)c(C)nn2c(C)c1CCC(=O)NCCN1CCOCC1 | 0 |
| C(=C\c1ccccc1)/CN1CCN(C(c2ccccc2)c2ccccc2)CC1 | 40[10 µg/mL] |
| CCOC(=O)N1CCC(Nc2c(NCCN3CCN(c4cccc(Cl)c4)CC3)c(=O)c2=O)CC1 | 40 |
| COc1ccccc1CN(Cc1nc2ccccc2c(=O)[nH]1)C(=O)Nc1ccc(C)cc1 | 0 |
| COc1cc(S(C)=O)ccc1-c1nc2ncccc2[nH]1 (configuration not stated) | 0[10 µg/mL] |
| O=C(Cn1ncc2c1-c1ccccc1OC2)N1CCN(Cc2ccc3c(c2)OCO3)CC1 | 0 |
| C#C[C@]1(O)CC[C@H]2[C@@H]3CCC4=C(CCC(=O)C4)[C@H]3CC[C@@]21C | 0[10 µg/mL] |
| Cc1nc2ncnn2c(C)c1Cc1ccccc1Cl | 0 |
| COc1ccc(Cl)cc1NC(=O)c1nc2nc(C)cc(C(F)F)n2n1 | 40 |
| CC1=C(C(=O)OCc2ccccc2)C(c2ccc(C)o2)C2=C(CCCC2=O)N1 (configuration not stated) | 0 |
| CCn1ccc(C(=O)Nc2ccc(Cl)cn2)n1 | 240 |
| CC1Cc2ccccc2N1C(=O)c1cnc2sccn2c1=O (configuration not stated) | 0 |
| CC(C)C(OC(=O)CN1C(=O)COc2ccccc21)C(=O)NC1CCCC1 (configuration not stated) | 0 |
| CC1CC(C)CN(c2cc(=O)n(Cc3ccc(F)cc3)c(=O)[nH]2)C1 (configuration not stated) | 40 |
| Cn1c(=O)oc2cc(S(=O)(=O)N3CCC(C(=O)NCC4COc5ccccc5O4)CC3)ccc21 (configuration not stated) | 40 |
| CCOC(=O)c1ccc(NC(=O)Cn2nnc(-c3ccc(C)cc3)n2)cc1 | 0 |
| O=C(CCN1C(=O)c2ccccc2C1=O)Nc1ccc(F)cc1 | 40 |
| Cn1c(C(=O)N2CCN(Cc3ccc4c(c3)OCO4)CC2)cc2c(=O)n(C)c3ccccc3c21 | 0 |
| CCOC(=O)Cn1cnc2c(nnn2Cc2ccc(Cl)cc2)c1=O | 40 |
| CCOC(=O)c1[nH]c(C)c(C(=O)NC(C)CC)c1C (configuration not stated) | 0 |

Two of the compounds above, field by field:
compound: COc1ccc(C(=O)Oc2ccc3oc(=O)sc3c2)cc1
  quorum sensing: 40

compound: CCCN1CCN(C(=O)CCCNC(=O)Cn2cnc3sc(C)c(C)c3c2=O)CC1
  quorum sensing: 40

Next section:
| Structure | quorum sensing |
| --- | --- |
| O=C1CCCc2c1cc(C(=O)NCCCN1CCOCC1)c(=O)n2-c1ccc(Cl)cc1 | 0 |
| Cc1ccc(OCC(=O)Nc2ccc(N(C)C)cc2)cc1 | 0 |
| COc1ccc(C(=O)c2ccccc2O)c(O)c1 | 0[10 µg/mL] |
| Cc1ccc(Oc2cc(N3CCOCC3)nc(-c3ccccc3)n2)cc1 | 40 |
| CNc1nc(Oc2ccccc2C(=O)OC)nc(SC)n1 | u |
| Cn1c(=N)n(CC(O)c2ccccc2)c2ccccc21 (configuration not stated) | 0 |
| CN1CCCN=C1/C=C/c1cccs1 | 0[10 µg/mL] |
| CCC(=O)N(CCC(Cc1ccccc1)c1ccc2c(c1)OCO2)Cc1ccccc1F (configuration not stated) | 0 |
| CCCCCn1c(SCc2ccncc2)nc2cc(C(=O)NCc3ccco3)ccc2c1=O | 40 |
| O=C(NNc1ccc(C2CCCCC2)cc1)C(O)(c1ccccc1)c1cccs1 (configuration not stated) | 40 |
| O=C1CCCc2c1cc(C(=O)NC1CCSC1=O)c(=O)n2-c1ccccc1 (configuration not stated) | 0 |
| COc1ccc(-c2cc(C(F)(F)F)nc(NC3CCCC3)n2)cc1OC | 0 |
| CCOc1ccc2c(c1)C(C)=CC(C)(C)N2 | 40[10 µg/mL] |
| Cn1nnnc1SCC1=C(C(=O)O)N2C(=O)[C@@H](NC(=O)[C@H](O)c3ccccc3)[C@H]2SC1 | 0[10 µg/mL] |
| O=C(Nc1ccccc1Cl)N1CCN(c2ccc3nncn3n2)CC1 | 40 |
| Cc1c(N(C)C(=O)C23CC4CC(CC(C4)C2)C3)c(=O)n(-c2ccccc2)n1C | 80 |
| CC(C)C(c1nnnn1Cc1ccccc1)N1CCN(Cc2ccco2)CC1 (configuration not stated) | 40 |
| O=[N+]([O-])c1cccnc1N1CCC(c2cc(-c3ccc(Cl)cc3Cl)n[nH]2)CC1 | 40 |
| CCOC(=O)Cn1c(=NC(=O)CSC(C)=O)sc2ccccc21 | 0 |
| O=C(O)CC12CSc3[nH]c(=O)sc3C1c1ccccc1OC2=O (configuration not stated) | 0 |
| O=C1C2C3C=CC(C3)C2C(=O)N1CNc1ccccn1 (configuration not stated) | 240 |
| CC[C@@H](CO)NC(=O)[C@@H]1C=C2c3cccc4[nH]cc(c34)C[C@H]2N(C)C1 | 0[10 µg/mL] |
| COc1ccc(N2C(=O)C3CCCN3C2c2cccs2)cc1 (configuration not stated) | 0 |
| Cc1cccnc1NC(=O)c1ccc2nc(N)sc2c1 | 0 |
| Cn1nc(C(F)(F)F)c2cc(NC(=O)OCc3ccc(C(C)(C)C)cc3)sc21 | 0 |
| N#CC1=C(N)c2ccccc2CC12CCCCC2 | 0 |
| O=c1c2ccccc2[se]n1-c1ccccc1 | u |
| Cc1ccc(S(=O)(=O)CC(=O)Nc2nc(-c3ccccc3)cs2)cc1 | 0 |
| COc1ccc(-n2c(Cc3cccn3C)nnc2SCC(=O)Nc2ccc(F)cc2)cc1 | 40 |
| O=C(COC(=O)c1ccncc1)Nc1cc(Cl)ccc1Cl | 0 |
| Cc1cc(=O)[nH]c(SCc2nc3ncccn3c2Br)n1 | 40 |
| CCC(=O)Nc1nc2ccc(NC(C)=O)cc2s1 | 0 |
| Cc1ccc(-c2nnc(SCc3nc(N)nc(Nc4ccccc4C)n3)n2N)cc1 | 0 |
| CC(N)CCCC(C)(C)O (configuration not stated) | 0[10 µg/mL] |
| COc1cccc(C(c2sc3ncnn3c2O)N2CC(C)OC(C)C2)c1 (configuration not stated) | 0 |
| COc1ccc(N2C(=O)CC(N3CCN(c4ccccc4F)CC3)C2=O)cc1 (configuration not stated) | 0 |
| COc1ccccc1N1CCN(C(=O)CSc2nc(N)cc(=O)[nH]2)CC1 | 40 |
| CCOC(=O)COn1c(=O)c(C)[n+]([O-])c2ccccc21 | 0 |
| Cc1ccc2[nH]c3c(c2c1)CN(C(=O)CN1CCCc2ccccc21)CC3 | 40 |
| C[C@H]1[C@H](C)CC[C@]2(C(=O)O)CC[C@]3(C)C(=CC[C@@H]4[C@@]5(C)CC[C@H](O)C(C)(C)[C@@H]5CC[C@]43C)[C@H]12 | 40[10 µg/mL] |
| CCCCNc1oc(-c2ccc(OC)cc2)nc1S(=O)(=O)c1ccccc1 | 0 |
| CN(C)[C@@H]1C(=O)C(C(N)=O)=C(O)[C@@]2(O)C(=O)C3=C(O)c4c(O)ccc(Cl)c4[C@@](C)(O)C3C[C@@H]12 (some centres not stated) | 40[10 µg/mL] |
| COc1cc2nc(N3CCN(C(=O)c4ccco4)CC3)nc(N)c2cc1OC | 0[10 µg/mL] |
| Cc1ccc(C(=O)n2c3ccccc3c3ccccc32)cc1 | u |
| CCOCCCNCC(=O)NC1(C)C2CCC(C2)C1(C)C (configuration not stated) | 0 |
| c1cncc([C@H]2CCCCN2)c1 | 0[10 µg/mL] |
| CCCCn1c(CN2CCN(c3ccccc3)CC2)nc2c1c(=O)n(C)c(=O)n2C | 40 |
| CCOC(=O)C1CCN(CCC(=O)Nc2ccc(Cl)cc2)CC1 | 0 |
| Cn1nnnc1SCC(=O)N1CCN(c2ccccc2)CC1 | 0 |
| O=C(NCCCN1CCN(c2ccccc2F)CC1)C1CC(=O)N(C2CCCC2)C1 (configuration not stated) | 40 |
| CCOc1ccc(N(CC(=O)NC(C)CC)S(=O)(=O)c2c(C)noc2C)cc1 (configuration not stated) | 40 |
| CC(C)COC(=O)C1C(=O)CC(C)(O)C(C(=O)OCC(C)C)C1c1cccnc1 (configuration not stated) | 40 |
| COc1cccc(/C=N/NC(=O)C(=O)NCc2ccco2)c1O | 40 |
| CC(C)N1CC(O)=C(c2ccccc2)C1=N | 40 |
| CCOC(=O)C1CCN(C(c2cc(OC)c(OC)c(OC)c2)c2sc3nc(C)nn3c2O)CC1 (configuration not stated) | 40 |
| O=C(Nc1nncs1)c1ccccc1NS(=O)(=O)c1cccs1 | 40 |
| Cc1cccnc1NC(=O)C1CCN(S(=O)(=O)c2ccc3c(c2)CCC(=O)N3)CC1 | 40 |
| Cn1c(=O)[nH]c(=O)c2[nH]c(CN3CCN(C(=O)c4ccco4)CC3)nc21 | 0 |
| CN(C)c1ccc(NC(=O)CSc2nc3ccccc3c(=O)n2C2CCCCC2)cc1 | 0 |
| O=C1c2ccccc2C(O)N1Cc1ccc2c(c1)OCO2 (configuration not stated) | 0 |

Other structures
| Structure | quorum sensing |
| --- | --- |
| COc1cc(NC(=O)C2CCC(CNc3c(N4CCC(C)CC4)c(=O)c3=O)CC2)cc(OC)c1 (configuration not stated) | 0 |
| CCn1c(SCC(=O)NCCc2ccccc2)nnc1-c1ccco1 | 0 |
| CCCc1cc(C(=O)N(C2CCCCC2)C2CCCCC2)no1 | 0 |
| FC(F)(F)C(Oc1nc(NC2CCCCC2)nc(N2CCOCC2)n1)C(F)(F)F | 0 |
| COC(=O)c1ccccc1NC(=O)c1sc(=S)n(C)c1N | 0 |

Some values from above.
`CCCc1cc(C(=O)N(C2CCCCC2)C2CCCCC2)no1` – quorum sensing: 0
`COc1cc(NC(=O)C2CCC(CNc3c(N4CCC(C)CC4)c(=O)c3=O)CC2)cc(OC)c1` (configuration not stated) – quorum sensing: 0
`COC(=O)c1ccccc1NC(=O)c1sc(=S)n(C)c1N` – quorum sensing: 0

Screening results deposited in PubChem by Southern Research Specialized Biocontainment Screening Center.
